Source: PubChem BioAssay
HPGD block = qHTS Assay for Inhibitors of HPGD (15-Hydroxyprostaglandin Dehydrogenase) | purified HPGD, NADH fluorescence kinetic, PGE2 substrate | 15-hydroxyprostaglandin dehydrogenase [NAD(+)] (Homo sapiens), P15428 | 150,000 compounds, 4.3% hits | Potency, µM, for inactives: top-dose activity change, negative = inhibition, actives largely listed as inhibitors | AID 894, 2007; active = well fitted inhibition curve with a large enough effect (not every such curve was filed as active); inconclusive = small, poorly fitted or top-dose-only effect, or another doubt; inactive = no such curve, though single readings can be large or run the other way;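 also: top concentration of the series not given in the record; plate controls included wells without enzyme; inactives centre near -10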
Target sequence (P15428 whole entry, looked up): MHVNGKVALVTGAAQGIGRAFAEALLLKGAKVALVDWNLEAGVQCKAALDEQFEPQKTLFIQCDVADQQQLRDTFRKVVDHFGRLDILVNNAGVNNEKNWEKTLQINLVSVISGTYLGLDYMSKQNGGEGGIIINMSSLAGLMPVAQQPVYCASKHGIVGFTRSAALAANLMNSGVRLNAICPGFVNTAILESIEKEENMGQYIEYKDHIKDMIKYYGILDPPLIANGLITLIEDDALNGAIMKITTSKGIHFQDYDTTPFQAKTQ
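NADH formation kinetics: reaction with 30 uM PGE2 and 1 mM NAD+ (final), 20 nM enzyme, Tris-HCl pH 8 with Tween 20, after 15 min compound preincubation at room temperature. Fluorescence change, last versus first of five reads.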
An asterisk follows results filed as active; u = inconclusive; & = joins results of further samples; ! = repeats disagree. % is scaled to controls: 0 for no effect and ±100 for the full control effect; potency is read from the fitted curve at half-maximal effect.

No.	HPGD block	Structure
1	2.1%	CCOC(=O)C1CCN(C(=O)Cc2ccc(C)cc2)CC1
2	u	CCOC(=O)C1(C(C)C)Oc2ccccc2C(c2ccc(OC)cc2)=C1C(=O)OC (stereo not drawn)
3	0.4%	CCOc1ccc(C(=O)NC(=S)NCc2cccnc2)cc1
4	-9.6%	CC(C)CN(C(=O)COC(=O)CCN1C(=O)c2ccccc2C1=O)C1CCS(=O)(=O)C1 (stereo not drawn)
5	-2.4%	Cc1[nH]c2ccc(OC(=O)N3CCOCC3)cc2c1C(=O)OC(C)C
6	-3.3%	CC1(C)Cc2noc(N)c2C(C)(C)N1OC(=O)c1cccs1
7	-21.6%	COc1ccc(-c2nnc(N3CCC(C)CC3)c3ccccc23)cc1
8	u	CC1=NN(c2ccc(S(=O)(=O)O)cc2)C(=O)/C1=C\c1ccc(Cl)cc1
9	28.2µM*	O=S1(=O)N=C(Nc2nncs2)c2ccccc21
10	0.398µM*	O=C(C1CCC(CNc2c(N3CCCCC3)c(=O)c2=O)CC1)N1CCCCC1 (stereo not drawn)
11	-6.0%	COc1nc(NCc2ccco2)nc(N2CCC(C)CC2)n1
12	-3.0%	Cc1ccc(C(=O)N/C(=C\c2ccc(-c3cccc([N+](=O)[O-])c3)o2)C(=O)NC(C)(C)C)cc1
13	-24.7%	Cc1cc(C(=O)c2cccs2)c(N)s1
14	-18.7%	Cn1c(CN2CCN(c3cccc(Cl)c3)CC2)nc2ccccc21
15	-12.2%	Cc1ccc(C(=O)C2=C(O)C(=O)N(c3ncccn3)C2c2cccc(Cl)c2)o1 (stereo not drawn)
16	u	CCOC(=O)C1CCN(C(=O)c2cn(CCOC)c(=O)c3c2c2ccccc2n3C)CC1
17	-12.5%	Cc1nn(-c2cccc(Cl)c2)c2c1C(c1ccncc1)C(C#N)=C(N)O2 (stereo not drawn)
18	u	CCOC(=O)NCc1cc(-c2nn(C)c(=O)c3ccccc23)ccc1C
19	1.41µM*	O=C(O)c1ccc(N2C(=O)c3cccc(Oc4ccc(Cl)cc4)c3C2=O)cc1
20	-17.3%	COc1ccc(OC)c(/C=N/NC(=O)c2cc3c(OC)c(OC)ccc3[nH]2)c1
21	-5.7%	Cc1ccc(C(=O)Nc2ccccc2-c2ccccc2)cc1[N+](=O)[O-]
22	-7.7%	Clc1ccc(Cl)c(Oc2ccc(Oc3nc(Cl)ccc3Cl)cc2)n1
23	u	O=C(c1ccc(Cl)cc1)c1oc2ccccc2c1CS(=O)c1ccccc1 (stereo not drawn)
24	0.1%	CCN(CC)CCCn1c(C)cc2c(c1=O)C(c1cccc(Cl)c1)C(C#N)=C(N)O2 (stereo not drawn)
25	-8.7%	Cc1ccc(S(=O)(=O)NC(=O)Nc2ccc(F)cc2)cc1
26	0.9%	CCCN(CCC)C(=O)CC(c1ccc(F)cc1)c1ccco1 (stereo not drawn)
27	-27.6%	CCOC(=O)C1CCCN(C(=O)c2ccc([N+](=O)[O-])cc2)C1 (stereo not drawn)
28	-4.2%	CCCC(=O)Nc1ccccc1NC(=O)CN(C)S(=O)(=O)c1ccc(C)cc1
29	3.8%	CNc1ncc(Cc2ccccc2)s1
30	1.78µM*	CC1=NOC(=O)/C1=C\c1ccc(-c2ccc(Cl)cc2Cl)o1
31	-1.5%	COc1nc(N(C)C)nc(N(OC)S(=O)(=O)c2ccccc2Cl)n1
32	-10.9%	O=C(Nc1ccccc1N1CCN(C(=O)c2ccccc2)CC1)c1cc(Br)ccc1Cl
33	u	O=C(CN1C(=O)c2ccccc2S1(=O)=O)NCc1cccnc1
34	-6.5%	CC(C)C(c1nnnn1C1CCCC1)N1c2ccccc2CC1C (stereo not drawn)
35	u	CCOC(=O)c1cc2c(=O)n3ccccc3nc2n(CC2CCCO2)c1=NC(C)=O (stereo not drawn)
36	-6.1%	O=S(=O)(N1CCOCC1)N1CCN(c2ccccc2F)CC1
37	-7.0%	COc1cc(C(=O)O/N=C(\N)c2ccncc2)cc(OC)c1OC
38	-12.7%	CSCC[C@H](NC(=O)OC(C)(C)C)c1nnc(SCC(=O)Nc2ccc(C)cc2C)o1
39	-4.5%	Cc1nn(Cc2ccc(C(=O)N3CCOCC3)o2)c(C)c1Br
40	3.4%	CCC(C)[C@H](NC(=O)Nc1cccc(Cl)c1)C(=O)O (stereo partly drawn)
41	-5.4%	NC(=O)C[C@@H]1N[C@]2(C(=O)Nc3ccccc32)[C@@H]2C(=O)N(c3cc(C(F)(F)F)ccc3Cl)C(=O)[C@H]12
42	-2.3%	CCC(CC)NC(=O)c1cccc([N+](=O)[O-])c1C
43	-19.4%	COc1ccc2c(c1)[nH]c1c(=O)n(CCCn3ccnc3)cnc12
44	-14.7%	O=C(c1cc(-c2ccc(Cl)cc2)on1)N1CCOCC1
45	-2.7%	COc1ccc(NC(=S)N2CCCC(CO)C2)c(OC)c1 (stereo not drawn)
46	-23.1%	COn1c(-c2ccccc2)nc2c1CCc1nonc1-2
47	-2.0%	COCCN1C(=O)N[C@@H](c2ccccc2)[C@H](C(=O)OC)[C@H]1C
48	-3.6%	CCOC(=O)CNC(=O)CSc1nnc(-c2ccccc2OC)n1CC
49	2.6%	Cn1c(CCc2ccccc2)nnc1SCC(=O)N1CCOCC1
50	17.8µM*	O=C(NC1CCCCCCC1)c1ccc(CNc2c(N3CCOCC3)c(=O)c2=O)cc1
51	-29.6%	Cc1ccc(-n2c(SCC(=O)Nc3ccc4c(c3)OCO4)nnc2-c2cccs2)cc1
52	-11.2%	COc1ccc(NC(=O)c2ccco2)cc1NC(=O)c1cccc(OC(C)C)c1
53	u	Cc1ccsc1-c1nc(CSCC(=O)N2CCN(c3ccccc3)CC2)c(C)o1
54	-5.8%	Cc1cccc(OCCC(=O)Nc2c(C)n(C)n(-c3ccccc3)c2=O)c1
55	-16.6%	COc1cccc(-c2nc(CSCC(=O)NCC3CCCO3)c(C)o2)c1 (stereo not drawn)
56	-18.4%	COc1ccc(S(=O)(=O)N2CCC(C(=O)N3CCCCC3)CC2)cc1OC
57	-8.0%	COc1ccc(C(=O)n2nc(C)c(Br)c2C)cc1
58	u	COc1ccc(NC(=O)c2ccc(CNc3c(NC4CCCCC4)c(=O)c3=O)cc2)c(OC)c1
59	-3.1%	CC1SCC(=O)N(CC(=O)NCc2ccccc2)C1=O (stereo not drawn)
60	-8.6%	COc1ccccc1NC(=O)CN(c1ccc([N+](=O)[O-])cc1)S(=O)(=O)c1ccccc1

Other structures.
No.	HPGD block	Structure
61	u	O=C(Cc1ccccc1)Nc1ccccc1C(=O)O
62	-25.3%	Cc1cc(SCC(=O)c2ccccc2)nc2ccccc12
63	-3.7%	CCc1cccc(CC)c1NC(=O)COC(=O)c1cccc(-c2ccc(OC(C)=O)cc2)c1
64	-3.7%	CCCCCOC(=O)C1[C@H]2C(=O)N(c3ccccc3CC)C[C@]23C=C[C@H]1O3 (stereo partly drawn)
65	-5.4%	CCOc1ccccc1N1CCN(Cc2ccc(OC)c(OC)c2OC)CC1
66	-15.8%	CCCCCCN(C(=O)CCCCCN1C(=O)NC(C2CCCCC2)C(C(=O)OCc2ccccc2)=C1C)C(C(=O)NCCCC)c1ccc(OCC(=O)OC)c(C(=O)OC)c1 (stereo not drawn)
67	-8.6%	CC(C)(C)n1nnnc1C(c1cccs1)N(Cc1ccccc1)Cc1cccnc1 (stereo not drawn)
68	-12.8%	COc1ccc(OC)c2c1nc1n2CCS1
69	u	Cc1cc(-c2ccc(Cl)cc2)n2nc(N)nc2n1
70	-11.9%	O=C(CCSc1ccccc1)Nc1nnc(-c2ccccc2)o1
71	-3.1%	COc1ccc(C(=O)N2CC=C(c3ccccc3)CC2)cc1S(=O)(=O)N1CCOCC1
72	28.2µM*!	O=C(CSc1ncnc2nc[nH]c12)c1ccccc1
73	-1.7%	O=C(Nc1c(-c2ccccc2)nc2ccccn12)c1ccco1
74	-1.9%	CCCN1CCN(S(=O)(=O)c2ccc(OC)c(Br)c2)CC1
75	-5.8%	COc1ccccc1NC(=S)NCCN1CCOCC1
76	-9.0%	CCCC1C(=O)N(c2ccccc2)C1c1ccccc1 (stereo not drawn)
77	-0.6%	O=C(c1ccc(N2CCN(S(=O)(=O)c3ccccc3)CC2)c([N+](=O)[O-])c1)N1CCOCC1
78	-13.0%	Cc1sc2ncn(CC(=O)OC(C)C(=O)NC(C)(C)C)c(=O)c2c1C (stereo not drawn)
79	0.2%	Cc1nc(C)c(Cc2ccccc2Cl)c(=O)[nH]1
80	-1.2%	COc1ccccc1NC(=O)N1CCN(c2ncccn2)CC1
81	1.5%	O=C(NCCOC(=O)C1COc2ccccc2O1)c1cccnc1 (stereo not drawn)
82	-6.4%	CNC(=S)N(Cc1ccc2c(c1)OCO2)C1CC(=O)N(c2ccccc2)C1=O (stereo not drawn)
83	-11.9%	CCOC(=O)C1=C(COCCN)NC(C)=C(C(=O)OC)C1c1ccccc1Cl (stereo not drawn)
84	-15.0%	FC(F)(F)c1cccc(N2CCN(c3nnnn3-c3ccccc3)CC2)c1
85	-3.7%	CCOC(=O)COc1cc(=O)n(CC)c2ccccc12
86	-8.7%	COc1ccc(OC)c(CNc2nc3ccccc3n2CCN2CCCCC2)c1
87	u	CC(C)CNC(=O)c1ccc(NC(=O)c2ccccc2[N+](=O)[O-])cc1
88	-17.2%	CCCC(=O)C1=C(O)C(C(=O)OC)C(C)(C)CC1=Nc1ccccc1 (stereo not drawn)
89	-14.8%	COc1ccccc1N1CCN(C(=O)Nc2cccc(C)c2)CC1
90	-19.7%	CN1C(=O)C(O)(CC(=O)c2cccc(-n3cccc3)c2)c2ccccc21 (stereo not drawn)
91	u	COc1ccccc1OCCCCCc1c(C)n[nH]c1C
92	-13.1%	O=C(CNC1C(=O)Nc2ccccc21)Sc1ccccc1 (stereo not drawn)
93	-6.8%	COc1ccc(N2CCN(CC(O)COc3ccc([N+](=O)[O-])cc3)CC2)cc1 (stereo not drawn)
94	-18.6%	Cc1cc(C(=O)OCC(=O)Nc2nc(-c3ccccc3)cs2)c(C)o1
95	-14.7%&-8.8%	COC(=O)[C@@]1(Cc2ccc(F)cc2)[C@H]2c3cc(C(=O)N4CCCC4)n(CCc4c[nH]c5ccc(OC)cc45)c3C[C@H]2CN1C(=O)c1ccccc1
96	-17.6%	Fc1cccc(Cl)c1Cn1nnc2c(NCc3ccccn3)ncnc21
97	-19.9%	C(=C\c1ccccc1)/CSc1nnc(-c2cnccn2)n1Cc1ccco1
98	7.94µM*	Cc1nc(SCC(=O)NCc2ccco2)nc(C)c1C
99	-5.7%	CC(C)OCCCN1C=C2C(=O)C(C)(OC(=O)C3CCCC3)C(=O)C=C2C=C1c1ccsc1 (stereo not drawn)
100	-24.1%	Cc1cccn2c(=O)c(C=O)c(N3CCCCCC3)nc12
101	-12.8%	CN(C)c1ccc(N=C/C=C2\N(C)c3ccccc3C2(C)C)cc1
102	-11.6%	CC(C)NC(=S)N/N=C/c1cccs1
103	-10.9%	COC(=O)c1ccc(CSc2nc3c(c(=O)n2-c2ccc(C)cc2)SCC3)o1
104	0.1%	Cn1nnnc1SCc1c(F)cccc1F
105	-13.2%	COc1ccc(C(=O)Nc2nc3c(s2)Cc2cc(OC)ccc2-3)cc1
106	u	COc1cc(Cl)c(C)cc1NC(=O)c1cc(S(=O)(=O)N(C)C)ccc1N1CCCC1
107	-2.0%	Cc1cc(C)cc(OCC(=O)N/N=C/c2ccncc2)c1
108	u	CNC(=O)c1cc2c(=O)n3cccc(C)c3nc2n(C(C)C)c1=N
109	-18.3%	COc1cc(/C=C/C(=O)OCC(=O)N2CCN(C(=O)c3ccco3)CC2)ccc1O
110	-13.3%	COc1ccccc1N1CCN(C(=O)C2CCC(Cn3c(=S)[nH]c4ccccc4c3=O)CC2)CC1 (stereo not drawn)
111	u	O=C(Nc1cnc2ccccc2c1)c1cccc(-n2cnnn2)c1
112	2.1%	Cc1ccc(-c2csc(NC(=O)Cc3cccs3)n2)cc1C
113	-8.2%	CCOC(=O)c1cccc(NC(=O)CSc2nc3ccccc3c(=O)n2CC)c1
114	-1.3%	N#Cc1cccc(NC(=O)N2CC[C@@]3(CCCN(C(=O)c4ccco4)C3)C2)c1
115	-18.4%	CCOC(=O)c1c(N)sc(C(O)(C(F)(F)F)C(F)(F)F)c1-c1ccc(F)cc1
116	u	O=C1OC2(c3ccc(O)cc3Oc3cc(O)ccc32)c2c1c(-c1ccccc1)c(-c1ccccc1)c(-c1ccccc1)c2-c1ccccc1
117	-3.5%	Cc1cccc(-n2cc(C#N)c(=O)[nH]c2=O)n1
118	-11.6%	Cc1ccc(NC(=S)NNC(=O)c2nnn(-c3ccccc3)c2C)cc1
119	u	CCC(=O)c1ccc(OCc2ccccc2)c(OC)c1
120	-5.0%	O=C(NC1CCCCCC1)C1c2ccccc2C(=O)N1CCCN1CCOCC1 (stereo not drawn)

Only part of the results is shown; rates above refer to the full screens.
